Mtb MenB inh: M. tuberculosis MenB inhibitors, primary screen, biochemical, absorbance; 1,4-dihydroxy-2-naphthoyl-CoA synthase (Mycobacterium tuberculosis (strain ATCC 25618 / …; MenB enzyme assay, absorbance read-out; some hits fall short of the stated cut; inhibition, %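 (about 12 µg/mL by stock and volumes)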; hit rate 0.43% among 100,000;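 active = mean of two replicates above 30%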;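 note: 0% = no compound and 100% = wells with inactive enzyme; the first replicate is given; strong numbers were not always called active; inactives centre near -10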
PV pol inh: poliovirus RdRp elongation inhibitors, primary screen, biochemical, fluorescence polarization, total intensity. poliovirus polymerase elongation; hits give low values. % elongation, % (compound at 16.7 µg/mL). Genome polyprotein (Poliovirus type 1 (strain Mahoney)), P03300. hit rate 0.66% among 150,000; in the data active = % elongation below about 90%; note: some results filed as inactive read as strong as hits
MbtI inh: MbtI salicylate synthase inhibitors, primary screen, biochemical, fluorescence intensity | P9WFX0 | purified MbtI enzyme, fluorescence intensity read-out | inhibition, %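 (about 17 µg/mL by stock and volumes)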 | hit rate 0.89% among 100,000;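 active = above 50% in both replicates, above 80% if mildly self-fluorescent; inactive = the rest, strongly fluorescent compounds included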;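 note: 0% = mean of negative and 100% = mean of positive controls; one replicate is shown; some compounds called inactive have numbers as strong as hits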
Target sequence (P9WFX0 whole entry, looked up): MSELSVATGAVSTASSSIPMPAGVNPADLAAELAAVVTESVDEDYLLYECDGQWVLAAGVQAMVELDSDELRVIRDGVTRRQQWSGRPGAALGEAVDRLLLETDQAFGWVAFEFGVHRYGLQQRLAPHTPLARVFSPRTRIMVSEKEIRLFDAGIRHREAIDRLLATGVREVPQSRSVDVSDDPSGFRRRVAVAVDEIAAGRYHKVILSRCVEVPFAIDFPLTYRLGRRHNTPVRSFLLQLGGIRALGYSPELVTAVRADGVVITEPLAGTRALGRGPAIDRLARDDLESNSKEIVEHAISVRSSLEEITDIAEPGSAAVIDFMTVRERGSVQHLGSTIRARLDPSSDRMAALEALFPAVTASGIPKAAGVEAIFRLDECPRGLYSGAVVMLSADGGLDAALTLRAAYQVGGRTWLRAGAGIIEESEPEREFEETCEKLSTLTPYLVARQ
PV pol inh intensity: also measured in PV pol inh; calls as there; % elongation; measured here: total intensity read-out; formula for this scale not given here;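 total fluorescence in place of polarization; lower means less elongation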
* marks the source's active call; other numbers are inactive results; · = not tested or not shown.

No.	smiles	Mtb MenB inh	PV pol inh
1	Nc1c2cnc(N3CCCC3)nc2nc(=O)n1-c1ccc(Cl)cc1	22	102
2	CCOC(=O)N1CCN(C(=O)CSc2nc3c(c(=O)n2Cc2ccccc2)SC(C)C3)CC1 (configuration not stated)	-18	103
3	O=C(NCc1ccccc1)c1cc(I)ccc1O	13	·
4	CCOc1ccc2c(c1)sc1nc(=O)n(-c3ccccc3)c(=O)n12	-14	102
5	NC(=O)COc1ccc2c(c1)OCO2	5	104
6	O=c1cc(CSc2nc3ccccc3s2)c2ccccc2[nH]1	-4	103
7	O=C(N/N=C/c1ccco1)C1CC12CCC2 (configuration not stated)	-113	99
8	CNC(=S)Nc1ccccc1	-7	98
9	O=C(c1ccc(Cl)c(S(=O)(=O)N2CCCC2)c1)N1CCc2ccccc21	-14	102
10	COc1ccc2nc(/N=C(\N)NC(=O)N3c4ccccc4Sc4ccccc43)nc(C)c2c1	-3	100
11	CC(C)NC(=O)c1ccc(N(C)S(C)(=O)=O)cc1	-19	102
12	Cc1cccc(C)c1-n1nnnc1SCC(=O)Nc1ccc2c(c1)OCO2	-6	100

No.	PV pol inh intensity	MbtI inh
1	108	51
2	105	-4
3	·	83
4	103	4
5	111	-10
6	109	·
7	102	25
8	101	11
9	109	-5
10	95	4
11	105	1
12	102	-6

More compounds.
No.	smiles	Mtb MenB inh	PV pol inh
13	CCCS(=O)(=O)c1c(S(=O)(=O)CCC)c2cc(CC)ccn2c1C(=O)OC	-58	102
14	CCCNC(=O)c1[nH]c2cc(OC)ccc2c1Sc1ccccc1	1	103
15	COc1ccc(CCn2c(C)cc(C(=O)COC(=O)c3ccco3)c2C)cc1	-24	101
16	CN(c1ccccc1)N1C(=O)c2cccc3cccc(c23)C1=O	6	101
17	CNC(=O)CN(c1cccc(F)c1)S(C)(=O)=O	-29	104
18	O=C(OCC(=O)N1CCCc2ccccc21)c1ccccc1	·	103
19	O=C(CCC(=O)N1CCSc2ccccc21)NCc1ccccc1	-4	106
20	CCn1c(C(=O)NCc2ccc(Cl)cc2)cc2sccc21	-15	103
21	CCc1cc2c(cc1C(=O)CCN1CCOCC1)OCCO2	-1	102
22	CCCCCCCCCCC[C@@H](C[C@H]1OC(=O)[C@H]1CCCCCC)OC(=O)[C@@H](CC(C)C)NC=O	3	101
23	Clc1ccc(-c2nnc(C3CCC(c4ccccc4)CC3)o2)cc1 (configuration not stated)	-20	100
24	CSc1ccc(S(=O)(=O)NCCN2CCOCC2)cc1	-17	105

No.	PV pol inh intensity	MbtI inh
13	102	42
14	109	14
15	106	5
16	101	0
17	102	-11
18	99	-1
19	106	2
20	103	-5
21	104	·
22	102	-11
23	101	7
24	104	-3

The list goes on:
No.	smiles	Mtb MenB inh	PV pol inh
25	CC1=C(C)C(=O)C(NCc2ccco2)=CC1=O	-120	74*
26	NC(=O)CS(=O)(=O)c1ccc(Cl)cc1	5	101
27	CC1CC(C(F)(F)F)n2ncc(C(=O)O)c2N1 (configuration not stated)	-20	100
28	Cc1ccc(N(C)S(=O)(=O)c2ccc3c(c2)CCCC(=O)N3)cc1	-10	100
29	COc1ccc2ccccc2c1C=Nc1ccc(C)cc1	5	106
30	COc1ccc(CN(C(=O)Nc2ccc(OC)cc2)C2CCN(C(C)=O)CC2)cc1	-11	105
31	COc1cccc(Cn2nnc3c(=O)[nH]c(C4CCN(C(=O)c5ccccc5)CC4)nc32)c1	-30	105
32	O=C(NCCC1=CCCCC1)c1sc2ccccc2c1Cl	-24	100
33	COc1cccc(N2C(=O)NC(=O)C(CCc3ccncc3)(CCc3ccncc3)C2=O)c1	-25	105
34	CCOc1ccc(C(=S)N2CCCC2)cc1	-44	103
35	Cc1cccc(OCCn2c(C3CCCO3)nc3ccccc32)c1 (configuration not stated)	-11	101
36	O=C(Cc1cn2ccsc2n1)OCc1ccc(Cl)c(Cl)c1	-40	104

No.	PV pol inh intensity	MbtI inh
25	76*	8
26	103	1
27	99	-13
28	102	2
29	101	·
30	104	-12
31	103	-10
32	104	4
33	112	·
34	97	-6
35	103	-8
36	94	-7

Looked up by structure from above (7):
No.	smiles	Mtb MenB inh	PV pol inh
11	CC(C)NC(=O)c1ccc(N(C)S(C)(=O)=O)cc1	-19	102
4	CCOc1ccc2c(c1)sc1nc(=O)n(-c3ccccc3)c(=O)n12	-14	102
9	O=C(c1ccc(Cl)c(S(=O)(=O)N2CCCC2)c1)N1CCc2ccccc21	-14	102
22	CCCCCCCCCCC[C@@H](C[C@H]1OC(=O)[C@H]1CCCCCC)OC(=O)[C@@H](CC(C)C)NC=O	3	101
29	COc1ccc2ccccc2c1C=Nc1ccc(C)cc1	5	106
36	O=C(Cc1cn2ccsc2n1)OCc1ccc(Cl)c(Cl)c1	-40	104
15	COc1ccc(CCn2c(C)cc(C(=O)COC(=O)c3ccco3)c2C)cc1	-24	101

No.	PV pol inh intensity	MbtI inh
11	105	1
4	103	4
9	109	-5
22	102	-11
29	101	·
36	94	-7
15	106	5

(list continues)
No.	smiles	Mtb MenB inh	PV pol inh
37	CC1=CC(=O)CN(S(=O)(=O)c2ccc(C)cc2)C1	-2	94
38	CC1CCCN(C(=O)CN2C3CCC2CC(O)(c2cccnc2)C3)C1 (configuration not stated)	-48	104
39	O=C(CNS(=O)(=O)c1cccs1)NC(c1ccccc1)c1ccccc1	1	98
40	Cc1cc2c(SCC(=O)NC3CCCC3)ncnc2s1	11	100
41	O=S(=O)(c1ccccc1)N1CCN(CCO)CC1	-14	98
42	CCOC(=O)N1CCC(NS(=O)(=O)c2ccc3c(c2)C(C)(C)C(=O)N3C)CC1	15	99
43	CCCn1c2ccccc2c2cnn(CC(=O)NCCOC)c(=O)c21	12	101
44	O=C1Nc2ccccc2/C1=N\N1C(=O)C2C=CC=CC2C1=O (configuration not stated)	-24	94
45	O=S1(=O)CC=C(CBr)C1	·	99
46	CCSc1cc(C)nc2ncnn12	-14	101
47	O=C(O)CN1C(=O)CCS(=O)(=O)c2ccccc21	-16	104
48	O=C(CCN1C(=O)COc2ccccc21)NCc1ccccc1	0	99

No.	PV pol inh intensity	MbtI inh
37	99	·
38	102	-1
39	105	3
40	102	10
41	99	·
42	101	-3
43	98	128
44	98	·
45	95	-7
46	101	19
47	109	-3
48	103	-7

The closing 2 compounds of the part above come first, to join the parts.
No.	smiles	Mtb MenB inh	PV pol inh
47	O=C(O)CN1C(=O)CCS(=O)(=O)c2ccccc21	-16	104
48	O=C(CCN1C(=O)COc2ccccc21)NCc1ccccc1	0	99
49	CN1CCN(CCNC(=O)C2c3ccccc3C(=O)N(C3CCCC3)C2c2cccs2)CC1 (configuration not stated)	-13	104
50	O=C(CCn1c(=S)oc2ccccc21)NN1CCOCC1	-10	100
51	Cc1ccc2c(c1)C(C(=O)O)=Cc1ccccc1O2	6	99
52	Cc1nnc(SCC(=O)NC2CCCCCC2)[nH]c1=O	-17	138
53	COc1ccc(-c2cnnn2-c2ccc(NC(=O)c3ccccc3C(F)(F)F)cc2)cc1OC	-22	101
54	COc1cc(CN2CCN3CCCC3C2C2CCCCC2)cc(OC)c1 (configuration not stated)	-9	101

No.	PV pol inh intensity	MbtI inh
47	109	-3
48	103	-7
49	103	-16
50	98	-3
51	103	27
52	152	37
53	106	6
54	100	-3

Laid out differently: results already given.
| entry | Compound | Mtb MenB inh | PV pol inh | PV pol inh intensity | MbtI inh |
| --- | --- | --- | --- | --- | --- |
| 49 | CN1CCN(CCNC(=O)C2c3ccccc3C(=O)N(C3CCCC3)C2c2cccs2)CC1 (configuration not stated) | -13 | 104 | 103 | -16 |
| 50 | O=C(CCn1c(=S)oc2ccccc21)NN1CCOCC1 | -10 | 100 | 98 | -3 |
| 51 | Cc1ccc2c(c1)C(C(=O)O)=Cc1ccccc1O2 | 6 | 99 | 103 | 27 |
| 52 | Cc1nnc(SCC(=O)NC2CCCCCC2)[nH]c1=O | -17 | 138 | 152 | 37 |

Source: PubChem BioAssay
